Bioassay records as filed in PubChem.
Vaccinia inh: blocks a specific stage of Vaccinia orthopoxvirus infection. Vaccinia-infected cells, mCherry/Venus stage reporter fluorescence; active compounds read low; some inactives read as strong as hits. activity change (mCherry), % (concentration not given with the values). hit rate 0.01% among 89,000;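 active = mCherry past -33% and 40 or more points under the early reporter, replicates agreeing; inconclusive = past -33% without that gap or agreement; tested in A549 cells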;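 also: scaled between vehicle wells and reference inhibitor wells; 23 nL library stock went into each well; one replicate is shown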
Vaccinia inh Venus: recorded beside Vaccinia inh, whose call it bears; activity change (Venus), %; measured here: Venus reporter, other viral stage;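 negative = less Venus signal; first of two replicates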
* = called active by the depositor; ? = inconclusive; · = no result given; & = joins results of further samples.

SMILES	Vaccinia inh	Vaccinia inh Venus
N#C[C@@H]1[C@H](c2ccc(C3=CCCC3)cc2)[C@H](CO)N1S(=O)(=O)c1cccc(F)c1	6.7	-0.7
C/C=C/c1ccc2c(c1)O[C@@H](CN(C)C(=O)Nc1ccccc1)[C@H](C)CN([C@@H](C)CO)S2(=O)=O	-5.9	-3.7
Cc1ccc(S(=O)(=O)N[C@@H]2CC[C@@H](CCNC(=O)Cc3ccccn3)O[C@H]2CO)cc1	2.6	8.4
C[C@H](CO)N1C[C@H](C)[C@@H](CN(C)C(=O)c2ccncc2)OCc2cn(nn2)CCCC1=O	16.2&1.9	8.5&2.5
CCCC(=O)Nc1ccc2c(c1)OC[C@H](C)N(C)C[C@@H](C)[C@H](OC)CN(C)C2=O	6.0	10.5
O=C(C[C@H]1CC[C@H](NC(=O)Nc2cc(F)ccc2F)[C@@H](CO)O1)Nc1ccc(-c2ccccc2)cc1	-13.6	-7.8
C[C@@H]1CN([C@H](C)CO)C(=O)c2cc(C#Cc3ccccc3)cnc2O[C@H]1CN(C)Cc1ccccn1	-14.0	-4.7
C[C@@H]1CCCCO[C@@H](CN(C)S(=O)(=O)c2cn(C)cn2)[C@@H](C)CN([C@@H](C)CO)C(=O)c2cc(NS(=O)(=O)c3cccs3)ccc2O1	21.5	8.6
CCC(=O)Nc1ccc2c(c1)OC[C@H](C)N(Cc1ccccc1OC)C[C@@H](C)[C@@H](OC)CN(C)C2=O	7.9	8.0
CC(C)CC#Cc1ccc2c(c1)O[C@@H](CN(C)C(=O)Cc1ccccn1)[C@@H](C)CN([C@@H](C)CO)S2(=O)=O	-33.5	-33.8
Cc1ccccc1-c1ccc2c(c1)O[C@H](CN(C)Cc1ccc(C(=O)O)cc1)[C@@H](C)CN([C@@H](C)CO)S2(=O)=O	-11.1	-15.1
COC(=O)C[C@H]1C[C@H]2c3cc(NC(=O)C4CCOCC4)ccc3O[C@H]2[C@H](CO)O1	-3.9	9.3
OC[C@H]1[C@H](c2ccc(C#CC3CC3)cc2)[C@@H]2CN(CCC(F)(F)F)CCCCN12	-28.2	-9.5
CCC(=O)N(C)C[C@@H]1Oc2cc(C#Cc3cccnc3)ccc2S(=O)(=O)N([C@H](C)CO)C[C@H]1C	12.9	0.6
COc1ccc2c3c(n(C)c2c1)[C@H](CO)N(Cc1ccc(F)cc1)CC31CCN(C)CC1	-26.5	-19.5
COc1ccc(C#Cc2ccc([C@@H]3[C@@H](CO)N4CCCCN(Cc5ccncc5)C[C@H]34)cc2)cc1	?	·
COc1cccc(S(=O)(=O)Nc2ccc3c(c2)[C@@H]2C[C@@H](CC(=O)NCC(F)(F)F)O[C@@H](CO)[C@@H]2O3)c1	7.6	9.1
CC(C)C#Cc1ccc2c(c1)O[C@@H](CN(C)C(=O)c1ccncc1)[C@H](C)CN([C@@H](C)CO)S2(=O)=O	-20.5	-17.9
Cc1ccc(S(=O)(=O)Nc2ccc3c(c2)C(=O)N([C@@H](C)CO)C[C@@H](C)[C@H](CN(C)C(=O)Cc2ccccc2)OCCCC[C@H](C)O3)cc1	-13.4	-8.7
CO[C@H](CN(C)C(=O)C1CCOCC1)[C@H](C)CN(C(=O)Nc1ccc(F)cc1)[C@H](C)CO	3.3	1.4
C[C@@H]1CCCCO[C@H](CN(C)C(=O)C2CCCCC2)[C@H](C)CN([C@H](C)CO)C(=O)c2cc(NS(=O)(=O)c3ccc(F)cc3)ccc2O1	?	·
CCC(=O)N1[C@H](C(=O)N(C)C)[C@@H](CO)[C@@H]2Cn3c(ccc(-c4ccc(F)cc4)c3=O)[C@@H]21	-2.3	9.5
CC(C)C#Cc1ccc([C@H]2[C@H](C#N)N(C(=O)CN(C)C)[C@H]2CO)cc1	-2.5	-3.5
C[C@@H]1CN([C@@H](C)CO)C(=O)c2cc(C#Cc3ccc(F)cc3)cnc2O[C@@H]1CN(C)Cc1ccccn1	-13.9	-20.4
CN1C(=O)c2cc(NC(=O)c3ccc(F)cc3)ccc2OC[C@@H]2O[C@@H](CC(=O)N3CCOCC3)CC[C@@H]21	11.6	9.6
CCCC#Cc1cnc2c(c1)C(=O)N([C@H](C)CO)C[C@H](C)[C@@H](CN(C)C(=O)c1cccc(F)c1)O2	4.0	-5.3
Cc1noc(C)c1S(=O)(=O)Nc1ccc2c(c1)C(=O)N([C@@H](C)CO)C[C@H](C)[C@@H](CN(C)Cc1ccc(-c3ccccc3)cc1)O2	-24.4	-19.9
CO[C@H]1CN(C)C(=O)c2ccc(NC(=O)C3CC3)cc2OC[C@@H](C)N(C(C)=O)C[C@@H]1C	22.2	10.0
O=S(=O)(Cc1ccccc1)N1CCCCN2[C@H](CO)[C@@H](c3ccc(-c4ccccc4)cc3)[C@@H]2C1	29.9	5.6
C[C@H](CO)N1C[C@H](C)[C@@H](CN(C)C(=O)Nc2ccc(F)cc2)Oc2cc(Br)ccc2S1(=O)=O	6.5	5.5
C[C@H](CO)N1C[C@H](C)[C@@H](CN(C)C(=O)CN(C)C)Oc2cc(C#CCN(C)C)ccc2S1(=O)=O	1.7	-2.5
C/C=C/c1ccc([C@H]2[C@H](CO)N(C(C)=O)[C@H]2CN(C)C(=O)c2ccccn2)cc1	3.7	9.1
C[C@H]1CN([C@@H](C)CO)C(=O)c2cc(NS(=O)(=O)c3cccs3)ccc2O[C@@H]1CN(C)C	4.1	1.8
COc1cccc(NC(=O)C[C@H]2CC[C@H]3[C@H](COc4ccc(NC(=O)c5ccccc5F)cc4C(=O)N3C)O2)c1	-11.6	-11.1
CO[C@H]1CN(C)C(=O)c2cc(NC(=O)C3CCOCC3)ccc2OC[C@@H](C)N(C(C)=O)C[C@H]1C	1.9	3.9
CN(C)CC(=O)N[C@@H]1C=C[C@@H](CC(=O)NCc2ccccc2F)O[C@@H]1CO	8.9	15.9
CC(C)CC#Cc1cnc2c(c1)C(=O)N([C@@H](C)CO)C[C@H](C)[C@@H](CN(C)C(=O)c1ccccc1F)O2	18.1	15.8
C[C@H]1CN([C@@H](C)CO)C(=O)Cc2cc(NS(=O)(=O)c3cccs3)ccc2O[C@@H]1CN(C)S(C)(=O)=O	-1.1	-6.2
CC(C)NC(=O)N(C)C[C@H]1Oc2c(NC(=O)Nc3ccccc3)cccc2C(=O)N([C@@H](C)CO)C[C@@H]1C	-0.5	-3.1
C[C@@H]1CN([C@@H](C)CO)C(=O)c2cc(NS(=O)(=O)c3ccccc3)ccc2O[C@@H](C)CCCCO[C@@H]1CN(C)C(=O)c1ccccc1	17.5	11.7
CCCNC(=O)[C@H]1[C@H](CO)[C@H]2Cn3c(ccc(C4=CCCC4)c3=O)[C@@H]1N2C(C)=O	12.5	15.6
CC(=O)N1CC2(C1)[C@@H](c1ccccc1)[C@H](CO)N2C(=O)c1ccncc1	2.4	2.6
C[C@H]1CN([C@@H](C)CO)C(=O)c2cc(NS(=O)(=O)c3ccc(Cl)cc3)ccc2O[C@@H]1CN(C)C(=O)NC1CCCCC1	16.3	5.2
C[C@H]1CN([C@@H](C)CO)S(=O)(=O)c2ccc(C#CC(C)(C)O)cc2O[C@@H]1CN(C)C(=O)C1CCC1	17.9	2.8
O=C(C[C@H]1CC[C@H]2[C@@H](COC[C@H](O)CN2Cc2cccc(Cl)c2)O1)N1CCCCC1	2.9	-3.1
C[C@H](CO)N1C[C@H](C)[C@H](CN(C)C(=O)Nc2ccc(C(F)(F)F)cc2)OCCCC[C@H](C)Oc2ccc(NS(=O)(=O)c3ccccc3)cc2C1=O	-23.7	-15.5
O=C(NCC[C@H]1CC[C@@H](NC(=O)C2CCCCC2)[C@@H](CO)O1)c1cc(Cl)cc(Cl)c1	-9.0	-0.3
CNC[C@@H]1Oc2c(NC(=O)Nc3ccccc3)cccc2C(=O)N([C@@H](C)CO)C[C@H]1C	5.1	7.0
C[C@H](CO)N1C[C@H](C)[C@@H](CN(C)C(=O)Nc2ccc(C(F)(F)F)cc2)Oc2ccc(NC(=O)CCN3CCOCC3)cc2CC1=O	-5.2	-8.4
CCCNC(=O)[C@@H]1[C@@H](CO)[C@@H]2Cn3c(ccc(C4=CCCCC4)c3=O)[C@@H]2N1C(=O)c1cnccn1	6.5	-0.4
C[C@H]1CN([C@@H](C)CO)C(=O)c2cc(C#Cc3ccc(F)cc3)cnc2O[C@H]1CN(C)Cc1ccccn1	-14.7	-18.1
COc1ccc(S(=O)(=O)N[C@@H]2CC[C@@H](CCn3cc(-c4ccccc4F)nn3)O[C@@H]2CO)cc1	-0.4	-3.7
CCC(=O)N(C)C[C@H]1Oc2cc(-c3ccncc3)ccc2S(=O)(=O)N([C@H](C)CO)C[C@H]1C	14.9	1.9
C[C@@H]1CN([C@H](C)CO)C(=O)Cc2cc(NC(=O)Nc3cccc4ccccc34)ccc2O[C@H]1CN(C)S(=O)(=O)c1ccc(Cl)cc1	-4.4	-1.0
C[C@H]1CN([C@@H](C)CO)C(=O)c2cccc(NC(=O)Nc3ccccc3)c2O[C@H]1CN(C)Cc1ccncc1	-2.6	3.2
COc1ccc(NC(=O)Nc2ccc3c(c2)[C@@H]2C[C@@H](CC(=O)N4CCc5ccccc5C4)O[C@@H](CO)[C@@H]2O3)cc1	-10.7	-3.1
CC(C)NC(=O)N(C)C[C@@H]1Oc2cc(Br)ccc2S(=O)(=O)N([C@H](C)CO)C[C@H]1C	16.7	3.8
C[C@@H]1CCCCO[C@@H](CN(C)Cc2ccccc2)[C@H](C)CN([C@H](C)CO)C(=O)c2cc(NC(=O)C3CCCCC3)ccc2O1	?	·
N#C[C@H]1[C@@H](c2ccc(C3=CCCC3)cc2)[C@@H](CO)N1C(=O)C1CCCC1	8.8	13.4
CO[C@@H]1CN(C)C(=O)c2ccc(NC(=O)c3ccc(Oc4ccccc4)cc3)cc2OC[C@H](C)NC[C@@H]1C	?	·

Other structures follow:
SMILES	Vaccinia inh	Vaccinia inh Venus
COc1ccc(NC(=O)N2CCCCN3[C@H](C2)[C@H](c2ccc(C#CCC(C)C)cc2)[C@@H]3CO)cc1	-20.1	-37.1
C[C@@H]1CN([C@@H](C)CO)C(=O)c2cc(-c3cncnc3)cnc2O[C@H]1CN(C)Cc1ccc(F)cc1	8.2	9.4
COc1ccc(NC(=O)N(C)C[C@H]2Oc3ccc(NC(=O)CCC(F)(F)F)cc3C(=O)N([C@H](C)CO)C[C@H]2C)cc1	6.8	5.5
Cc1ccc(S(=O)(=O)N(C)C[C@@H]2Oc3ccc(NC(=O)CCC(F)(F)F)cc3CC(=O)N([C@H](C)CO)C[C@@H]2C)cc1	?	·
C[C@@H]1CN([C@H](C)CO)C(=O)c2cc(NC(=O)CCC(F)(F)F)ccc2O[C@@H](C)CCCCO[C@@H]1CN(C)Cc1ccc(C(F)(F)F)cc1	?	·
CN(C)C(=O)c1ccc(-c2ccccc2[C@@H]2[C@@H](C#N)N(C(=O)C3CCC3)[C@H]2CO)cc1	-1.4	-3.1
COCC(=O)Nc1ccc2c(c1)[C@@H]1C[C@@H](CC(=O)NCc3ccc(-c4ccccc4)cc3)O[C@@H](CO)[C@@H]1O2	-31.3	-32.4
COc1ccc(S(=O)(=O)N(C)C[C@@H]2Oc3cc(C4=CCCC4)ccc3S(=O)(=O)N([C@H](C)CO)C[C@H]2C)cc1	-11.5	-19.3
COc1cccc(CNC(=O)C[C@@H]2C=C[C@@H](NC(=O)C3CCOCC3)[C@H](CO)O2)c1	8.3	3.2
C[C@@H]1CN([C@H](C)CO)C(=O)Cc2cc(NS(=O)(=O)c3ccc(Cl)cc3)ccc2O[C@H]1CN(C)C(=O)Nc1ccccc1	9.4	3.4
COc1ccc(C(=O)Nc2ccc3c(c2)C(=O)N(C)C[C@@H](OC)[C@H](C)CN[C@H](C)CO3)cc1	-6.7	-2.7
COc1ccc(S(=O)(=O)N(C)C[C@H]2Oc3c(NC(=O)C4CCCCC4)cccc3C(=O)N([C@@H](C)CO)C[C@@H]2C)cc1	7.5	2.9
O=C(Nc1ccccc1F)N1CC2(C1)[C@H](c1ccccc1)[C@@H](CO)N2C(=O)CC1CC1	3.1	10.5
CCOC(=O)c1ccc(NC(=O)O[C@H]2[C@H](OC(=O)Nc3ccccc3)[C@@H](OC(=O)Nc3ccccc3)[C@@H](OC)O[C@@H]2CO)cc1	?	·
C[C@H](CO)N1C[C@H](C)[C@H](CN(C)S(=O)(=O)c2cn(C)cn2)Oc2c(NC(=O)c3cnccn3)cccc2C1=O	10.4	7.9
C[C@@H]1CN([C@H](C)CO)S(=O)(=O)c2ccc(C#Cc3cccnc3)cc2O[C@@H]1CN(C)C(=O)C1CC1	5.7	-1.1
CCCNC(=O)N1CCC2(CC1)CN(C(=O)CN1CCOCC1)[C@H](CO)c1[nH]c3cc(OC)ccc3c12	18.5	7.7

This is a subset, so the mix of outcomes need not match the whole.
